High-throughput results from PubChem BioAssay.
NPYLR7 agonist – agonists of mosquito NPYLR7 receptor, primary screen, cell-based, Aedes aegypti, calcium fluorescence, mosquito biting behavior. 0.15% of 270,000 active. Aedes aegypti neuropeptide Y-like receptor 7 (NPYLR7). HEK293T NPYLR7/Galpha15, GCaMP6s calcium fluorescence. activation, % at 10 µM; in the data active = activation above about 40%;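 also: 0% = vehicle and 100% = reference agonist at the receptor; some compounds past the cut are filed as inactive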
NPYLR7 agonist max-min – recorded beside NPYLR7 agonist, whose call it bears; activation, %; measured here: Max-Min RFU normalised activation; some inactives read as strong as hits;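 span of the calcium signal over five minutes; 0% = vehicle and 100% = native peptide agonist; compound fluorescence can raise it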
* hit, by the source's call; & = joins results of further samples. The list is partial, so the mix of outcomes need not match the whole.

Results follow in this order: NPYLR7 agonist, NPYLR7 agonist max-min
CC(=O)Nc1cc(Cl)ccc1NC(=O)CCC(=O)c1ccccc1
  -2, -3
O=C(Nc1ccc(N2CCOCC2)cc1)C12CC3CC(CC(Br)(C3)C1)C2
  -2, -3
CC(=O)c1cccc(-c2nc(N)nc(NCc3ccccc3)n2)c1
  15, 2
O=[N+]([O-])c1cc(Cl)c(O)c(NS(=O)(=O)/C=C/c2ccccc2)c1
  -15, -23
CCN1CCN(CCC(=O)Nc2sc(C(=O)OC)c(C)c2C(=O)OC)CC1
  -1, 3
COc1ccc(C(NC(=O)C2CCN(Cc3cccc(OC)c3)CC2)c2cnccn2)cc1 (stereo not drawn)
  10, -2
O=C(CSc1nc2c(cnn2-c2ccccc2)c(=O)[nH]1)NCC1CCCO1 (stereo not drawn)
  -4, -6
Cn1ccc(NC(=O)c2ccc(N3CCCC3=O)cc2)n1
  9, 3
Cc1nn(C)c(Cl)c1S(=O)(=O)NC(=O)C1(C)CCN1C(=O)c1ccccc1 (stereo not drawn)
  -1, -4
O=C(CN1CCOC1=O)NCc1cc(-c2ccco2)on1
  -5, -5
CC(C)(N)c1cn(CC2CCN(C(=O)Nc3cccc(F)c3)CC2)nn1
  14, 6
N#CCCN(CCC#N)C(=O)CN1CCSC2CCCCC21 (stereo not drawn)
  4, 3
C/C(=N/OCC(=O)N=Nc1c(O)[nH]c2ccccc12)c1cccs1
  0, -5
CCC(C)N(CC(=O)N(CCc1ccc(OC)c(OC)c1)Cc1ccco1)C(=O)c1ccc(C(F)(F)F)cc1 (stereo not drawn)
  0, -1
CC1C(=O)Nc2cc(C(=O)O)ccc2N1C (stereo not drawn)
  6, 4
O=C(NCc1cccnc1N1CCOCC1)c1ccco1
  2, 2
O=C(CSc1nc2c(cnn2CCO)c(=O)[nH]1)Nc1ccc(F)cc1F
  5, 5
COCc1c(Br)c(C)nc(OCC(=O)N/N=C\c2cc(I)c(OCc3ccccc3Cl)c(OC)c2)c1C#N
  7, 7
Cc1ccccc1C1CC(c2ccccc2Cl)=NN1C(=O)CN1CCN(c2ccccc2F)CC1 (stereo not drawn)
  0, -1
CCOC(=O)c1cc(C(=O)NC(C)c2cc3ccccc3o2)cc([N+](=O)[O-])c1 (stereo not drawn)
  11, 12
CCCN1CCC(C)(C(=O)Nc2ccc(-n3cccc3)cc2)C1 (stereo not drawn)
  0, -1
C[C@@H](Nc1nccnc1-c1ccccc1Oc1ccccc1)c1ccccc1
  15, 3
Cc1cc(CN(C)C(=O)c2cccc(NCc3ccc(C)s3)c2)on1
  2, -1
CC1CCN(c2ccc(NC(=O)CCl)cc2)CC1
  1, -1
COc1cccc(S(=O)(=O)N2CCN(c3cc(S(=O)(=O)NCC4CCCO4)ccc3OC)CC2)c1 (stereo not drawn)
  -1, 10
Cc1cc(C)c(C(=O)OCC(=O)Nc2sccc2C#N)c(C)c1
  3, -1
O=S(=O)(c1ccc(F)cc1)N1CCN(Cc2nc(-c3ccccc3)no2)CC1
  5, 4
O=C(NC1CCCCC1)c1ccccc1NS(=O)(=O)c1ccc(Cl)cc1
  -2, 9
CC1CCN(c2nc(-c3ccccc3)nc3c2CN(C(=O)Nc2ccc(F)c(F)c2)CC3)CC1
  22, 14
O=c1c2cccc3c2c(nn1Cc1ccccc1Cl)-c1ccccc1-3
  2, 0
COCCCn1cc(C(=O)N2CCN(c3ccccc3F)CC2)c2nn(-c3ccccc3)c(=O)c-2c1
  19, 18
CCSc1nnc(SCC(=O)NC(=O)NC(C)C)s1
  -1, 2
O=C(Nc1ccc(OC(F)F)cc1)c1ccccc1O
  3, 2
O=C(NC1CC1)c1ccc(CSc2nc(N3CCCC3)cc(C(F)(F)F)n2)o1
  -5, 9
O=C(CN1CCc2sccc2C1c1cccc(F)c1)N1CCN(C(=O)c2ccc([N+](=O)[O-])cc2)CC1 (stereo not drawn)
  7, 1
CCOc1ccc(C(=O)Nc2cccc(-c3nc4ccccc4s3)c2)cc1[N+](=O)[O-]
  13, 9
CCNC(=O)O[C@@H]1CO[C@H]2[C@@H]1OC[C@@H]2NC(=S)NC1CCCCC1
  -6, -16
Cc1sc(N2CCOCC2)nc1-c1ccc(NC(=O)C(C)C)cc1
  3, 2
CCC(=O)Nc1sc2c(c1-c1nc3ccccc3s1)CCN(C(C)=O)C2
  0, -3
CS(=O)(=O)c1ccccc1S(=O)(=O)NNC(=O)C1C2CCCCC21 (stereo not drawn)
  -8, -12
COCc1cc(C(=O)N2CCOC(c3nc(C(C)C)n[nH]3)C2)c(C)o1 (stereo not drawn)
  21, 3
CN(CC(=O)NCCc1ccc(Cl)cc1Cl)C1CCS(=O)(=O)C1 (stereo not drawn)
  6, 3
O=C(CCN1C(=O)COc2ccccc21)NCCn1cnc2ccccc21
  -8, -9
Cc1ccc(C)c(CC(=O)NCc2ccc(=O)[nH]c2)c1
  4, -7
Cn1cnc(S(=O)(=O)N2CCC3(CCCO3)CC2)c1
  13, 10
Cc1ccc(C(=O)Nc2c(C)nc3ccc(C)cn3c2=O)cc1
  5, 2
CC(c1ccccc1)N(Cc1cc(NC(=O)C2CCCC2)ccc1N(C)C)C(=O)c1cccs1 (stereo not drawn)
  13, 11
Nc1nc(SCC(=O)Nc2ccc(F)cc2F)[nH]c(=O)c1NC(=O)c1ccc(Cl)cc1
  -2, -2
COCC(=O)Nc1cc(-c2nc3cc(Cl)ccc3o2)ccc1Cl
  21, 32
CCc1nc2c(OCc3ccccc3C(=O)OC)cccn2c1N(C)C(=O)c1ccncc1
  -3, -5
COc1ccc(CC2(CO)CCN(Cc3ccc(SC)cc3)CC2)cc1
  2, -2
Cn1cc(-c2[nH]c3cc(NC(=O)[C@H](N)C4CCCCC4)cc4c3c2C=NNC4=O)cn1
  3, -1
CO[C@H]1CN(C(=O)c2cc(C)c[nH]2)CC[C@H]1N
  3, 19
CCC(C)(C)C(=O)N1CCN(c2ccc(NC(=O)c3ccc(C)cc3)cn2)CC1
  1, -4
CC(C)c1nc2cc(-c3ccn[nH]3)ccc2o1
  -3, -8
COCCCNC(=O)C(NC(=O)c1ccccc1C)C1CCN(C(=O)c2ccc(Cl)cc2)CC1 (stereo not drawn)
  19, 24
CCn1c(CCC(=O)Nc2nccs2)nc2cc(S(=O)(=O)N3CCOCC3)ccc21
  -3, -6
CCC(NCc1cc(C)c(OC(C)=O)c(C)c1)c1nc(C)no1 (stereo not drawn)
  -5, -8
Cc1nn(-c2ccccc2)c(Cl)c1C(=O)N1CCC(N(C)C)CC1
  2, 5
O=C(NC1(c2ccccc2)CC1)c1cc(COc2cccc(C(F)(F)F)c2)on1
  -1, -2

Further compounds follow:
Results follow in this order: NPYLR7 agonist, NPYLR7 agonist max-min
CC(C)(C)CC(=O)N[C@@H]1C=C(C(=O)NCC(N)=O)C[C@@H](O)[C@@H]1O
  -5, -13
NC(=O)c1ccc(C(F)(F)F)nc1N1C[C@@H]2[C@H](C1)[C@H]1CC[C@@H]2O1
  0, -2
COc1ccc(OC)c2sc(N(Cc3cccnc3)C(=O)c3ccc(Cl)s3)nc12
  -9, -9
CC(C)c1nnc(CN2CCC(N(C)C(=O)OC(C)(C)C)C2)o1 (stereo not drawn)
  4, 3
Cc1noc(-c2ccc(C(C)(C)C)cc2)c1C(=O)NCc1cccc(Cl)c1
  29, 23
CC(C)c1nc(CNC(=O)c2ccc(N(C)C3CCCCC3)nc2)no1
  14, 8
CCCCN(C)S(=O)(=O)c1ccc2c(c1)nc(SCCCC#N)n2C1CCCC1
  -4, -4
Cc1cccc(-c2ncc(CNCC3CCCN(C(=O)C(C)C)C3)cn2)c1 (stereo not drawn)
  3, -1
CC(C)Sc1nc(N2CCOCC2)c2c(c1C#N)CC(C)(C)OC2
  2, 1
O=S(=O)(Nc1ccc(OC(F)F)cc1)c1cccc2cccnc12
  -3, 2
CCOc1c(CC)cnc2c1c(=O)n(CC(=O)N1CCC(C)CC1)c(=O)n2C
  -2, -4
CCCCN(C)c1c(C)nc2c(OCCOc3ccc(F)cc3)cccn12
  9, -1
O=C1NC(=Nc2ccc(Br)cc2)SC1Cc1cccc(C(F)(F)F)c1 (stereo not drawn)
  -2, -8
CCCCSc1n[nH]c(=S)s1
  6, 7
Cc1nn(-c2ccc(F)cc2)c2nc(Cc3ccccc3)nc(N3CCCN(C(=O)c4cccc([N+](=O)[O-])c4)CC3)c12
  -5, 0
N#Cc1cn(-c2ccc(NC(=O)c3c(F)cccc3F)cc2)nc1N
  4, 2
C=C(C)Cn1c(=O)c2c(nc3n2C(C)C(C)=NN3CC(=O)OCC)n(C)c1=O (stereo not drawn)
  4, 9
CCOCCOc1nc(-c2cccc(F)c2)n(-c2ccc(NC(=O)CSc3ccccc3)cc2)n1
  23, 27
CC(=O)N1CCc2cc(NC(=O)C(C)n3c(=O)oc4ccccc43)ccc21 (stereo not drawn)
  11, 9
CNC(=O)c1ccc(Oc2nccc(C(F)(F)F)n2)cc1
  0, 0
CC1(C)NC(=O)N(CC(O)CN2C(=O)CCC2=O)C1=O (stereo not drawn)
  3, -1
CCN(CC)C(=O)C1(P(=O)(c2ccccc2)c2ccccc2)CCC1
  -5, 0
Cc1cc(C(C)NC(=O)c2cc3c(cc2O)OCO3)c(C)s1 (stereo not drawn)
  6&2, 2&-2
Cc1nc(C)c2c(C)c(C(=O)N3CCC(NC(=O)NC4CCCCC4)CC3)sc2n1
  0, 13
COc1cc(CC(=O)NC2CCCCCCC2)cc(OC)c1OC
  -1, 4
CCOC(=O)c1c(C)[nH]c(C)c1C(=O)COC(=O)c1ccc(Br)o1
  -4, -8
O=C(CN1CCN(Cc2nc3ccsc3c(=O)[nH]2)CC1)N1CCCCCC1
  4, 4
CCOC(=O)[C@H]1C[C@]2(CCCCN(CCOC)C2=O)N(C(=O)Cc2ccc(F)cc2)[C@H]1c1ccccc1
  0, 1
CN1[C@@H](CCC(=O)Nc2ccccc2)CNC(=O)[C@@H]2[C@H]1CCN2C1CCOCC1
  -4, -11
Cc1noc(C)c1Cn1c(C)c(C(=O)NCc2ccc3c(c2)OCCO3)sc1=O
  10, 8
CC(C)(C)c1ccc(N2C(=O)/C(=C/c3ccc([N+](=O)[O-])cc3)C=C2c2ccccc2)cc1
  -1, 6
COc1ccc(OC)c2sc(N(Cc3ccccn3)C(=O)c3cccc(S(C)(=O)=O)c3)nc12
  0, -4
Cc1ccc(S(=O)(=O)n2ccnc2C)cc1C
  3, 1
CC(Nc1ccc2c(c1)OCO2)C(=O)Nc1ccc(Cl)cn1 (stereo not drawn)
  -2, -3
Cc1c(Br)c(C(F)(F)F)nn1CC(=O)Nc1sc2c(c1C#N)CCCCC2
  0, -7
Cc1ccc(CNC(=O)Cn2nnc(C(=O)Nc3ccc(Br)cc3)c2N)cc1
  -12, -16
Cc1nc2c(OCc3ccc(Cl)cc3)cccn2c1N(C)Cc1cccs1
  14, 10
CS(=O)(=O)c1ccc(-n2ncc3c2CCN(C(=O)c2coc4c2C(=O)CCC4)C3)cc1
  1, 17
Cc1ccccc1CO[C@]1(C(=O)NCC2CC2)CC(OCc2cccc(OC(F)(F)F)c2)[C@@H]2OC(C)(C)O[C@@H]2C1 (stereo partly drawn)
  14, 12
CCOC(=O)c1scnc1C(C)C
  2, -2

Structural class, those above with a cyano group.
Results follow in this order: NPYLR7 agonist, NPYLR7 agonist max-min
N#CCCN(CCC#N)C(=O)CN1CCSC2CCCCC21 (stereo not drawn)
  4, 3
COCc1c(Br)c(C)nc(OCC(=O)N/N=C\c2cc(I)c(OCc3ccccc3Cl)c(OC)c2)c1C#N
  7, 7
Cc1cc(C)c(C(=O)OCC(=O)Nc2sccc2C#N)c(C)c1
  3, -1
CCCCN(C)S(=O)(=O)c1ccc2c(c1)nc(SCCCC#N)n2C1CCCC1
  -4, -4
CC(C)Sc1nc(N2CCOCC2)c2c(c1C#N)CC(C)(C)OC2
  2, 1
N#Cc1cn(-c2ccc(NC(=O)c3c(F)cccc3F)cc2)nc1N
  4, 2
Cc1c(Br)c(C(F)(F)F)nn1CC(=O)Nc1sc2c(c1C#N)CCCCC2
  0, -7

(continued)
Results follow in this order: NPYLR7 agonist, NPYLR7 agonist max-min
CCOC1=CC(=O)N(Cc2ccccc2)C1
  6, 0
Cc1ccc(-n2c(SCc3ccc(Cl)cc3)nnc2-c2ccc(F)cc2)cc1
  39, 33
Cc1ccsc1CN(C)C(=O)Cn1[nH]c(=O)c2ccccc2c1=O
  -1, -1
Cc1nn(C)c(C)c1CCC(=O)NCc1noc(-c2c(F)cccc2F)n1
  0, -3
COCC(=O)N1CCCC(CNC(=O)Cc2ccc(OC)cc2)C1 (stereo not drawn)
  7, 2
Cc1nn(C(C)C(=O)NC(N)=O)c(C)c1[N+](=O)[O-] (stereo not drawn)
  4, 6
N#Cc1cnc(N(Cc2cccc(O)c2)CC2CC2)c(Cl)c1
  9, 5
COc1cccc(-c2nnc3ccc(OCCNC(=O)CC(C)(C)C)nn23)c1
  -11, -18
COc1ccc(-c2cc3c(SCC(=O)NC4CCCCC4)nccn3n2)cc1
  1, -2
Cc1cc(CNC(=O)c2cscn2)ccc1S(C)(=O)=O
  -21, -24
N#Cc1ccccc1N1C(=O)C2C3C=CC(CC3)C2C1=O (stereo not drawn)
  -11, -17
CCSc1nc2sc3c(c2c(=O)n1C)CCC3
  6, 15
Cc1c(Cl)cccc1N1CN(C(=O)CN(CC(C)C)C(=O)c2cccc(F)c2)CC1=O
  10, 13
CCc1ccccc1OCCN1CCC(n2nc(C)cc2C)C1 (stereo not drawn)
  24, 9
COc1ccccc1NS(=O)(=O)c1c(C)nn(C)c1C
  -6, -9
CS(=O)(=O)N1CCn2c(nc3ccccc32)C1
  -3, -2
COc1ccc(C(CC(=O)N2CCN(Cc3ccc4c(c3)OCO4)CC2)c2c[nH]c3ccccc23)cc1 (stereo not drawn)
  -1, 9
